Assay outcomes: PubChem, Emory University Molecular Libraries Screening Center
Measles inh: inhibitors of measles virus growth in cells, primary screen, measles RdRp inhibitor project, cell-based, single point, HTS; infected Vero cells, GFP fluorescence, 64 h; stronger effect = lower value; AID 745, 2007; z-score (concentration not given with the values); actives 0.1% (n = 33,000);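 active = z-score under -3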;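 also: score is relative to mean and SD of the compound wells of a plate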
* hit, by the source's call. Some of the compounds tested; count on the stated rates, not on these rows.

compound	Measles inh
Cc1ccc(C2CC(C(F)(F)F)n3nc(C(=O)Nc4cccc(CCC#N)c4)cc3N2)cc1 (configuration not stated)	-1.5
COc1cc2nc(SCC(=O)Nc3cc(C(F)(F)F)ccc3Cl)n(Cc3ccco3)c(=O)c2cc1OC	-0.49
COC(=O)C1=NNC2(c3cccc([N+](=O)[O-])c3)C(=O)N(c3ccccc3)C(=O)C12 (configuration not stated)	0.77
Cc1cc(C)c2c(=O)cc(C(F)F)oc2c1	-0.11
O=S(=O)(c1cccc2cccnc12)N1CCC(N2CCCCC2)CC1	-0.15
Cc1nnc(NC(=O)c2ccc(S(=O)(=O)N3CCCc4ccccc43)cc2)o1	-0.66
COc1ccc(OC)c(S(=O)(=O)Nc2ccc(CC(=O)O)cc2)c1	-0.02
CCOc1ccc(-n2c(=O)c3c(C)c(C(=O)N(C)C)sc3n(Cc3cccc(C)c3)c2=O)cc1	0.23
CC(=O)N1CCc2cc(S(=O)(=O)NCCC(=O)Nc3ccc(Br)cc3)ccc21	0.25
CCC1CCCCN1C(=O)CS(=O)(=O)c1cn(Cc2ccccc2Cl)c2ccccc12 (configuration not stated)	-0.08
CCCNC(=O)c1c(O)c2cccc3c2n(c1=O)CC3	-0.7
O=c1[nH]c2ccccc2c(=O)n1Cc1ccccc1	0.7
CCOc1ccccc1Nc1nc(-c2ccccn2)cs1	-0.17
CCSc1nc(C)cc(COC)c1C#N	-1.1
Clc1ccc(-c2nnc3ccc(Cl)nn23)cc1	-1.2
CC(=O)N1CCc2cc(Br)cc(S(=O)(=O)CCC(=O)Nc3cc(Cl)ccc3C)c21	-0.45
c1ccc(CCN2CCN(c3ncnc4sc5c(c34)CCCC5)CC2)cc1	-0.76
CCOC(=O)COc1ccc2c(=O)c(Oc3cc(C)cc(C)c3)coc2c1	-0.11
COc1ccc(NC(=O)c2[nH]c(C)c(C(C)=O)c2C)cc1	-1.3
COc1ccc(-c2nnc(Nc3ccc4c(c3)nc(C)n4C)c3ccccc23)cc1	-0.32
CC(=O)c1c(C)oc2c(Cl)cc(NS(=O)(=O)c3ccc(C)cc3)cc12	-0.1
Cc1cc(C)cc(N2C(=O)C3C(c4ccc(Cl)cc4)OC4(C(=O)c5ccccc5C4=O)C3C2=O)c1 (configuration not stated)	-0.11
Cc1ccc2[nH]c3c(ccc4c5ccccc5[nH]c43)c2c1	1.6
Cc1c(Br)c(C(F)(F)F)nn1CC(=O)NC(C)c1ccccc1 (configuration not stated)	-2.1
COc1ccc(NC(=O)CN2CCN(c3ccccn3)CC2)c(OC)c1	-1.8
O=[N+]([O-])c1cc(S(=O)(=O)Nc2ccc(O)c(Sc3nc4ccccc4s3)c2)ccc1Cl	-0.16
N#Cc1c(NC(=O)c2nn3c(C(F)(F)F)cc(-c4ccco4)nc3c2Br)sc2c1CCCC2	-0.55
COc1ccccc1CNC(=O)CC1Nc2c3ccccc3nc(=S)n2C1=O (configuration not stated)	-0.43
Cc1nn(Cc2ccc(C(=O)Nc3cccc(S(=O)(=O)N4CCOCC4)c3)o2)c(C)c1Cl	0.08
Cn1c(=O)c(-[n+]2ccccc2)c([O-])c2ccccc21	-0.43
Cc1ccccc1CSC1=NCCN1C(=O)Cc1ccc(F)cc1	-1.1
Cc1ccc(-n2sc3c4c(ccc3c2=O)C(=O)c2ccccc2C4=O)cc1	0.75
CCOc1cccc2cc(C(N)=O)c(=Nc3ccc(Br)cc3)oc12	-0.37
O=C(COC(=O)C1c2ccccc2Oc2ccccc21)c1ccc(Cl)cc1	1.9
CC(=O)Oc1ccc2nc(-c3cccc([N+](=O)[O-])c3C)oc(=O)c2c1	-0.53
COc1cc2c(cc1OC)C(C(=O)Nc1ccc(Br)cc1C)C(c1ccc(SC)cc1)N(C)C2=O (configuration not stated)	1.9
CC1=CC(C)(C)NC(=S)N1c1ccc(C)cc1	0.49
CCC(=O)N1CCc2cc(Br)cc(S(=O)(=O)NCCCN3CCC(C)CC3)c21	1.4
CCN(CC)C(=O)c1ccc(Cn2cc([N+](=O)[O-])cn2)o1	0.48
CCOc1cccc(C(=O)N2CCN(c3ccc([N+](=O)[O-])c(NC(C)c4ccccc4)c3)CC2)c1 (configuration not stated)	-0.6
CCOc1ccc(-n2c(SCC(=O)NCc3ccc(F)cc3)nc3c(c2=O)SCC3)cc1	-0.68
COc1ccccc1CNC(=O)CCNS(=O)(=O)c1cccc2nonc12	-0.51
Cc1ccc(S(=O)(=O)NCC2CCC(C(=O)NCC3CCCO3)CC2)cc1 (configuration not stated)	-0.14
Cc1cccc(C)c1Nc1c(-c2ccsc2)nc2ccc(Br)cn12	-0.8
COc1ccc2cc3cc(C(=O)N(C)Cc4ccccc4)sc3nc2c1	-0.19
COC(=O)C1C(=O)C2=C(CC1C)NC(C)=C(C(=O)OC(C)C)C2c1ccc(C(F)(F)F)cc1 (configuration not stated)	1.6
CCc1c(C)sc(NC(=O)c2cc3nc(-c4ccc5c(c4)OCO5)cc(C(F)(F)F)n3n2)c1C#N	-0.65
CCCCn1c(=S)[nH]c2ncccc2c1=O	1.1
CCc1c(C)nc2nc(NC(C)=O)[nH]n2c1=O	-1
C=CCNC(=O)CN(Cc1ccccc1)S(=O)(=O)c1ccc(Br)cc1	-0.33

(list continues)
compound	Measles inh
COC(=O)c1c(C)oc2cc(Br)c(O)cc12	-0.31
Cc1cc(NC(=O)CSc2nc3cc4c(cc3c(=O)n2Cc2ccco2)OCO4)n[nH]1	-0.4
C=CCOc1ccc(C=Nc2ccc(C)cc2)cc1	-0.35
CC1=C(OC(=O)C(C)(C)C)C(C)(C)C(c2ccccc2)OC1=O (configuration not stated)	1.1
O=[N+]([O-])c1ccc(S(=O)(=O)N2CCSC2c2ccc3c4c(cccc24)CC3)cc1 (configuration not stated)	-0.09
CCOC(=O)C1CCN(C(=O)c2cccn3c(=O)c4cc(Br)ccc4nc23)CC1	0.23
O=C(Nc1cc(Cl)ccc1O)c1cnn2c1NC(c1cccs1)CC2C(F)(F)F (configuration not stated)	-1.6
Brc1ccc(-c2nnc3ccc(OCc4ccccc4)nn23)cc1	-0.4
Cc1cc(=O)[nH]c2c1c(C)nn2C1CCCCC1	1.8
CC(C)CN1C(=O)C2C3CC4C5(C)CCCC(C)(C(=O)O)C5CCC4(C=C3C(C)C)C2C1=O (configuration not stated)	-0.47

An excerpt of these results, field by field.
COC(=O)c1c(C)oc2cc(Br)c(O)cc12
  Measles inh: -0.31

CCOC(=O)C1CCN(C(=O)c2cccn3c(=O)c4cc(Br)ccc4nc23)CC1
  Measles inh: 0.23

Brc1ccc(-c2nnc3ccc(OCc4ccccc4)nn23)cc1
  Measles inh: -0.4

CC1=C(OC(=O)C(C)(C)C)C(C)(C)C(c2ccccc2)OC1=O (configuration not stated)
  Measles inh: 1.1

Following part
compound	Measles inh
O=S(=O)(N=Cc1cccnc1)c1cccs1	0.15
COc1ccc(CCNC(=O)c2ccc3c(=O)n(CC4CCCO4)c(=S)[nH]c3c2)cc1OC (configuration not stated)	-0.05
COc1ccc(OC)c(S(=O)(=O)Nc2ccncc2)c1	0.11
COc1ccc(OCCn2cnc3ccccc32)cc1	0.82
COc1ccc(-c2cc(C(F)(F)F)n3nc(C(=O)Nc4cc(C)ccc4O)cc3n2)cc1OC	0.05
Brc1ccc(-c2nnc(SCc3ccccc3)o2)cc1	0.44
COc1cc(C2C(C(=O)OCC(C)C)=C(C)NC3=C2C(=O)CC(c2ccc(Cl)cc2)C3)ccc1OC(C)=O (configuration not stated)	-0.53
COc1ccc(C(=O)CC2(O)C(=O)Nc3ccc(Br)cc32)c(OC)c1 (configuration not stated)	-1.1
CCC1C(=O)OC(c2ccc(Cl)cc2)C(C)(C)C1=O (configuration not stated)	-0.65
C1=C(c2cccc3ccccc23)N2CCN=C2S1	0.47
O=C(CSc1oc(-c2cccs2)nc1S(=O)(=O)c1ccc(Cl)cc1)Nc1ccc(F)cc1	1
Fc1cccc(C2C=C(c3ccc(Cl)cc3)Nc3ncnn32)c1 (configuration not stated)	-0.1
O=C(NC1CS(=O)(=O)CC1Cl)c1cccc(C(F)(F)F)c1 (configuration not stated)	-0.68
CCOc1ccc(-n2ccnc2SCC(=O)Nc2cccc(C)c2C)cc1	0.83
CN(C)S(=O)(=O)c1ccc(C(=O)N2CCN=C2SCc2ccc(C(F)(F)F)cc2)cc1	0.45
CN1CCN(c2ncnc3scc(-c4ccc(-c5ccccc5)cc4)c23)CC1	0.69
Cc1ccc(S(=O)(=O)N2CCN(S(=O)(=O)c3ccc(C)cc3)C2)cc1	-0.29
CC(=O)Nc1ccc(C(=O)CSc2nc(N)cc(=O)[nH]2)cc1	0
COCCNC(=O)c1c[nH]c2ccc(S(=O)(=O)N(C)c3ccc(Br)cc3)cc2c1=O	-0.08
O=C(Nc1nc2c(s1)CCCC2)c1ccc(S(=O)(=O)N2CCc3ccccc3C2)cc1	0.11
NS(=O)(=O)c1ccc(CCNC(=O)c2cccn3c(=O)c4cc(Cl)ccc4nc23)cc1	0.12
Cc1c(N=Cc2cc([N+](=O)[O-])ccc2N2CCOCC2)c(=O)n(-c2ccccc2)n1C	0.81
CCCOc1ccc2oc(=O)c3c(c2c1)CCCN3C(=O)CN1CCc2ccccc2C1	-0.11
COc1ccc(CCC(O)C2(O)CCCCC2)cc1 (configuration not stated)	1.2
Cc1ccc(S(=O)(=O)C2(C(=O)NCCc3ccccc3)CC2)cc1	1.7
COc1cc(C2C(C(=O)OC3CCCCC3)=C(C)NC3=C2C(=O)CC(c2ccccc2)C3)cc(Br)c1O (configuration not stated)	-1.1
CC(=O)N(C(C)=O)c1ccc(-c2ccco2)cc1	-0.93
CCOC(=O)c1sc(NC(=O)CC)c(C(=O)OCC)c1C	-0.42
CCCc1oc2cc(OCC(=O)OC)c(CC)cc2c(=O)c1-c1ccc2c(c1)OCCCO2	0.17
CCSc1nnc2c(n1)OC(c1cccs1)Nc1ccccc1-2 (configuration not stated)	-0.55
Cc1ccc(CNC(=O)c2cccc(C(=O)NCc3ccc(C)cc3)c2)cc1	-0.7
Cc1ccc(NC(=O)c2sc3nc(-c4ccncc4)ccc3c2N)cc1Cl	1.5
Cc1ccc(S(=O)(=O)CCC(=O)NCCc2cccc(C)c2)cc1	-0.39
C=CCn1c(CCNC(=O)c2ccc(OC)c(OC)c2)nc2ccccc21	-0.16
O=C(O)CCCNS(=O)(=O)c1ccc(Oc2ccccc2Cl)cc1	-0.41
O=C(c1ccc2c(=O)n(-c3cccc(C(F)(F)F)c3)c(=S)[nH]c2c1)N1CCN(c2ccccc2)CC1	0.05
CCOc1cccc2c1OC1(C)CC2NC(=O)N1c1cccc(C(=O)N2CCN(c3ccccn3)CC2)c1 (configuration not stated)	-0.14
O=C(c1ccn(C(=O)NC2CCCCC2)n1)N1CCOCC1	0.09
CCOC(=O)C(=O)Nc1ccc(C(C)(C)C)cc1	-0.19
COc1ccc(-n2nc3cc(C)c(NC(=O)C(C)C)cc3n2)cc1	-0.49
COc1cccc(C(=O)NCCc2cc3c(OC)ccc(OC)c3[nH]c2=O)c1OC	-0.08
O=C1C2C3CC(C(Br)C3Br)C2C(=O)N1CC1CCCO1 (configuration not stated)	0.72
COc1cc(-n2c(=O)c3ccccc3n(CC(=O)c3cccc([N+](=O)[O-])c3)c2=O)cc(OC)c1OC	2.8
O=S(=O)(NCCN1CCOCC1)c1cccc2nsnc12	-0.51
Cc1ccc(NC(=O)c2cc3ccc(O)cc3oc2=N)cc1	-0.74
COCCNC(=O)C(=O)Nc1cc(C)ccc1OC	0.94
COc1ccc(-c2noc(CCC(=O)NCCC(C)C)n2)cc1	-1.2
CCN(CC)CCCC(C)Nc1ccnc2ccc([N+](=O)[O-])cc12 (configuration not stated)	-0.13
CC1=C(C(=O)OCCOc2ccccc2)C(c2ccccc2OC(C)C)C2=C(CCCC2=O)N1 (configuration not stated)	0.05
Cc1ccc(N2CCN(S(=O)(=O)c3c(C)n[nH]c3C)CC2C)cc1 (configuration not stated)	-0.81

(further entries)
compound	Measles inh
O=C(c1ccc(CS(=O)c2ccccc2)o1)N1CCCCC1 (configuration not stated)	-1.6
COc1ccc(N2C(=O)CCC(C(=O)N3CCN(C)CC3)C2c2ccc(OC)c(OC)c2)cc1 (configuration not stated)	-1.1
Cc1cccc(-n2ccnc2SCC(=O)Nc2cc(C(F)(F)F)ccc2Cl)c1	0.53
CCOC(=O)CN1C(=O)C(CC)Oc2ccc(Cl)cc21 (configuration not stated)	-1.7
Cc1cc(OC(=O)C2CC(=O)N(c3ccc4ccccc4c3)C2)c(C(C)C)cc1NC1=NS(=O)(=O)c2ccccc21 (configuration not stated)	-0.01
COc1cccc(Oc2nc3c(c(=O)n(C)c(=O)n3C)n2Cc2ccccc2Cl)c1	-0.12
COc1cc2c(C(=O)Nc3ccc(F)cc3)cn(CC(C)C)c(=O)c2cc1OC	-0.2
O=C1CSC(c2ccc([N+](=O)[O-])cc2)N1CCc1ccccc1 (configuration not stated)	0.33
Cc1ccc(NC(=O)CN(C)S(=O)(=O)c2cccs2)c(Br)c1	1.4
COc1ccccc1-c1nc(-c2ccccc2)c(-c2ccccc2)[nH]1	-0.36
CC1=CCN(S(=O)(=O)c2ccccc2)S(=NS(=O)(=O)c2ccccc2)C1 (configuration not stated)	1.3
